# TRPV1 PAM = enhances activation of the human vanilloid receptor TRPV1. Q8NER1. TRPV1-expressing cells, Fluo-8 calcium influx, capsaicin EC20 potentiation; host cell line not named in the record; control for the full effect not named in the record. potentiation, % at 8.33 µM. 320,000 compounds, 0.02% hits. AID 540277; active means potentiation above 80%; inconclusive means 30% to 80%; inactive means below 30%; further: 0% is about no effect
#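 TRPV1-expressing cells were cultured overnight at 35.5C and loaded with Fluo-8 calcium dye for 40 to 90 min at room temperature. After a 10 s baseline, compound was added and calcium influx was read kinetically for 3 min (ex 480/em 520 nm).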
# TRPML1 blocker = inhibitors of human TRPML1 channel; Q9GZU1; TRPML1-inducible cells, Ca2+ dye fluorescence, FDSS; active compounds read low; inhibition of EC80 agonist-evoked calcium signal; activity change, negative = inhibition, % (test concentration not listed); 390,000 compounds, 0.02% hits; AID 624415; in the data active means activity change below about -50%; inconclusive means about -30% to -50%; inactive means above about -30%;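 further: stimulus is agonist 54-4 at its EC80 concentration; on the % scale 0 is the no-effect control and ±100 the full control effect; compound concentration not given in the record; the text of the record puts the active cut at -80%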
# Target sequence (Q9GZU1 whole entry, looked up): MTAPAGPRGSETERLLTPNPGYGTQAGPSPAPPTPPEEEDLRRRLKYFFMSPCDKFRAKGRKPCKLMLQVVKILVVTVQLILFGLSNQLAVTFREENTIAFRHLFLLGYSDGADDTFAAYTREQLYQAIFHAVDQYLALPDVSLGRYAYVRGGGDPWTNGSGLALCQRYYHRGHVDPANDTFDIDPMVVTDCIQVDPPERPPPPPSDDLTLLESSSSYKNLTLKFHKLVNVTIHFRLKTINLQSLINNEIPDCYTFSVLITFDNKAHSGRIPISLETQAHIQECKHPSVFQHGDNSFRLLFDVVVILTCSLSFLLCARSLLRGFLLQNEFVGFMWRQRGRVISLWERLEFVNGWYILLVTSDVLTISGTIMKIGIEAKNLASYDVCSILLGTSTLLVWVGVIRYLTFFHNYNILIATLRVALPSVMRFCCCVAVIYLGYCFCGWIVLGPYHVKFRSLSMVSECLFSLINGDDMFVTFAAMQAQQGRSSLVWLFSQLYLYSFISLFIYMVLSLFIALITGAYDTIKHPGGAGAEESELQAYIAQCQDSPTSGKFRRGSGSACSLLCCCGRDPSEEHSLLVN
#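 Tet-induced TRPML1-DL cells loaded with Ca8 no-wash calcium dye were read kinetically on FDSS. Compound addition was followed by EC80 agonist 54-4 (4 uM final); inhibition was read over 110 s.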
# Sfp PPTase inh = inhibitors of Bacillus subtilis Sfp phosphopantetheinyl transferase | Q9F4F7 | Biochemical Sfp PPTase activity, qHTS | Potency, µM, without a hit: max response, negative = inhibition, most hits filed as inhibitors | 310,000 compounds, 3.5% hits; active means well fitted inhibition curve with a large enough effect; inconclusive means small, poorly fitted or top-dose-only effect, or another doubt; inactive means no such curve, though single readings can be large or run the other way;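 further: the enzyme is Sfp with the accession as filed and its product quenches rhodamine fluorescence; potency means the concentration at half of the fitted maximal effect; 0% = enzyme reaction without inhibitor and -100% = no enzyme wells; top concentration of the series not given in the record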
#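 Compounds were incubated with enzyme (final 15 nM) for 15 min at room temperature before substrate addition started the reaction. Fluorescence at 525 nm excitation, 598 nm emission was recorded immediately and after 30 minutes.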
# Menin-MLL FL inh = inhibitors of human menin-MLL interaction, wild-type MLL peptide; FP activity change, % at 61.4 µM; Fluorescence polarization, fluorescein-MLL peptide displacement from menin; 290,000 tested, under 10 active; inconclusive = falling polarisation curve, or a change in total fluorescence; inactive = total fluorescence flat and polarisation flat or rising; no compound was filed as active; the % refers to the polarisation; negative = inhibition;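 further: % of control where 0% means no effect; inhibitors lower the polarisation; unlabelled MLL peptide was the positive control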
# TRPML1 agonist = activates the human TRPML1 channel | AID 624414 | activation, % (test concentration not listed) | 410,000 compounds, 0.12% hits | TRPML1-expressing cells, Ca2+ dye fluorescence, FDSS; host cell line not named in the record; reference of the full effect not given here; in the data active = activation above about 50%; inconclusive = about 30% to 50%; inactive = below about 30%; further: 0% is about no effect; the text of the record puts the active cut at 80%
#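 Tetracycline-induced TRPML1-DL cells are seeded and incubated overnight before loading with a no-wash Ca2+ dye and quencher. Agonist activity is taken from the 110 s fluorescence read following compound pin-transfer on an FDSS, before EC80 54-4 challenge.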
# PINK1 expr mod = PINK1 expression modulation; PINK1 immunofluorescence, high-content cytometry, 24 h; Potency, µM (series often up to 76.6 µM), without a hit: top-dose activation (PINK1 increase), hits mostly activators; 410,000 compounds, 0.2% hits; AID 624263; active = well fitted activation curve with a large enough effect; inconclusive = small, poorly fitted or top-dose-only effect; inactive = flat fitted curve, though single readings scatter; cell line not stated here;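 further: potency means the concentration at half of the fitted maximal effect; % of control where 0% means no effect; nearly all actives have a fitted effect of over 65% in size; a mitochondrial uncoupler was the plate control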
#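 A stable cell line was treated with compounds at 5 concentrations for 24 hours, with CCCP as control. PINK1 levels and mitochondrial localization were measured by immunofluorescence with mitochondrial, cell and nuclear markers after fixation, read by laser-scanning cytometry.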
# ClpP mod = qHTS Assay for Activators of ClpP | ATP-dependent Clp protease proteolytic subunit (Bacillus subtilis (strain 168)), P80244 | purified B. subtilis ClpP, FRET peptide cleavage, 20 min | Potency, µM (top dose mostly 57.5 µM), for the others: at the highest dose activity change, negative = active | 340,000 compounds, 1.9% hits; active = well fitted falling curve with a large enough effect; inconclusive = small, poorly fitted or top-dose-only effect; inactive = no such curve, though single readings can be large or run the other way; further: potency means the concentration at half of the fitted maximal effect; the source files actives as falling curves though it sought activators and does not explain the sign; nearly all actives have a fitted effect of over 65% in size; many hits overshoot -100%
# Target sequence (P80244 whole entry, looked up): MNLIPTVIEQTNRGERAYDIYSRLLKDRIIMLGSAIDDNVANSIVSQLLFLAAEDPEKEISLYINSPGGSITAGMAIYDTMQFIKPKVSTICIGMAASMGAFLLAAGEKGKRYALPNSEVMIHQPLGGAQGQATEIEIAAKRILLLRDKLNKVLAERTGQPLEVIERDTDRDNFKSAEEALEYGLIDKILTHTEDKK
#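 FRET quenching reversal measured ClpP activation: 10 microg/mL B. subtilis ClpP at pH 8 with the FRET-FV decapeptide, read at 430 nm after 320 nm excitation. The 20-min minus 0-min signal was scaled between DMSO/no-enzyme wells and ADEP (5.8 microM final).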
# The depositor's hits bear a star; ? = inconclusive; . = not tested or not shown; [ ] = another dose, or the depositor's remark.
# Screens in order: TRPV1 PAM	TRPML1 blocker	Sfp PPTase inh	Menin-MLL FL inh	TRPML1 agonist	PINK1 expr mod	ClpP mod
- Cc1cc(C)n(CCN(C)Cc2cn[nH]c2-c2ccc(F)cc2F)n1
  4	-6	2%	1.2	0.4	-0.1%	-1.0%
- CCCCC(=O)Nc1ccc(F)c(Cl)c1
  10	-1	-6%	1.0	-0.1	0.6%	0.6%
- Cn1c(=O)c(Oc2ccc(F)cc2)c(O)c2ccccc21
  9	8	21%	3.9	2.9	2.7%	.
- CSc1ccccc1NC(=O)Cn1c(-c2cscn2)nc2ccccc21
  -15	-3	-3%	4.9	0.8	-0.2%[38.3 µM]	-22%
- O=C(Nc1ccc([N+](=O)[O-])cc1)c1cnn2c1NC(=C1CC1)C=C2C(F)F
  .	.	.	.	-0.4	-0.1%	1.5%
- COC(=O)[C@H]1[C@@H](C)N(CCc2cc(OC)c(OC)c(OC)c2)C(=O)N[C@H]1c1ccccc1
  .	4	3%	2.1[11.7 µM]	-0.2	1.0%	-0.1%
- COc1ccc(NC(=O)C/C(C)=N/NC(=O)C(=O)Nc2cccc(Cl)c2C)c(OC)c1
  6	5	15%	3.5	0.0	2.2%	.
- CCCOc1ccc(NC(=O)c2c(-c3ccccc3)noc2C)cc1
  .	-8	17%	-2.3	1.9	1.4%	-0.3%
- COc1cc(C2C(C#N)=C(N)N(N(C)C)C3=C2C(=O)CCC3)cc(OC)c1OC (centres undefined)
  -3	-27	0%	1.9	0.2	1.5%	.
- CCN1CC=C2C(C#N)=C(N)C(C#N)(C#N)C(c3cc(Cl)ccc3Cl)C2C1 (centres undefined)
  -13	17	-15%	1.4	5.9	?	22µM*
- CCc1cc(-c2n[nH]c(CCC(=O)O)c2-c2nc3ccccc3n2C)c(O)cc1O
  -1	10	0%	-1.3	-0.6	-0.3%	.
- COc1ccccc1CNC(=O)CCNC(=O)N1CC(=O)Nc2ccccc21
  -5	-5	9%	.	-0.9	-1.5%	-0.7%
- CC(C(=O)NC1CCCC1)N1CCN(S(=O)(=O)c2ccc(C(C)(C)C)cc2)CC1 (centres undefined)
  4	-9	.	.	0.6	-0.3%	-1.6%
- CSc1ccccc1C(=O)C1CCCN(C(=O)c2csnn2)C1 (centres undefined)
  -5	-6	-2%	1.6	0.3	1.9%	.
- Cc1ccc(NC(=O)C/C(N)=N/O)cc1C
  10	5	9%	1.9	-0.4	?	0.2%
- O=C(N/N=C/c1cccnc1)c1cc(O)c(O)c(O)c1
  8	-13	40µM*	-2.8	1.0	-0.3%	.
- O=C(c1cc(COc2ccc(F)cc2F)on1)N1CCSCC1
  -12	-6	2%	4.1	-0.1	-0.3%	.
- COc1ccccc1NS(=O)(=O)c1ccc2oc(SC)nc2c1
  28	5	5%	.	-1.5	0.1%	-7.5%
- O=C(/C=C/c1ccccc1[N+](=O)[O-])OC1CCCCC1=O (centres undefined)
  6	-1	9%	-0.7	0.9	-1.1%	0.1%
- COc1ccc2c(c1)c1c(c(=O)n(CCc3ccccc3)c(=O)n1Cc1ccc(F)cc1)n2C
  .	0	.	.	1.7	1.2%	?
- CCOc1ccc(-c2nn3c(-c4ccc(OC)cc4)nnc3s2)cc1
  -12	.	6%	-5.0	.	.	.
- Cc1c(C(=O)NCc2ccccc2C(F)(F)F)sc(=O)n1Cc1cccc(C(F)(F)F)c1
  .	.	.	.	0.8	-0.2%	0.9%
- O=C(CCc1ccc(S(=O)(=O)N2CCOCC2)cc1)Nc1ccc(F)cc1[N+](=O)[O-]
  .	6	.	.	-0.4	0.8%	?
- NC(=O)C(F)(F)C12OC3C4C5CC(C6C5C3C61)C42 (centres undefined)
  -2	-7	16%	3.1	1.1	-5.7%[38.3 µM]	0.6%
- O=C(COC(=O)c1ccc2[nH]c3c(c2c1)CCCC3)Nc1ccccc1
  -11	4	9%	5.0	0.2	0.4%	.
- O=[N+]([O-])c1cc(-c2nc(-c3ccccc3)no2)ccc1N1CCOCC1
  .	17	.	.	-0.9	1.3%	0.6%
- CCCn1c(=O)c(C(=O)NCCc2ccc(Cl)cc2)c(O)c2ccccc21
  13	-5	-11%	1.8	0.2	22%	?
- CC1=C(c2ccc(C)cc2)[N+](=O)C(C)(C)N1[O-]
  2	17	6%	0.5	-0.6	0.2%	.
- CCN(CC(=O)NC1CC1)S(=O)(=O)c1ccc(C)cc1
  -5	5	8%	.	0.4	-0.3%	-2.7%
- O=C1CC(c2ccc(F)cc2)C2=C(CCCC2=O)N1 (centres undefined)
  2	-10	2%	2.6	0.5	-1.0%	-1.6%
- CC(C)(C)OC(=O)N1CCC2(CC1)Oc1ccc(F)cc1C(=O)C21CC(c2cccnc2)=NO1 (centres undefined)
  -7	-3	5%	-0.3	0.2	-1.1%	-9.8%
- Cc1ccc(C(=O)NCCNC(=O)c2cccnc2)cc1
  2	-10	3%	-4.0	0.0	-0.7%	.
- Cc1cc(/C=C2/NC(=S)NC2=O)c(C)n1-c1cccnc1
  -9	14	6%	?	5.3	2.2%	-4.4%
- COc1cc(F)c(C2=CC(=O)CC(C)(C)C2)cc1F
  -15	-5	.	.	0.2	-0.3%	-3.4%
- Cn1c(C2=C(O)CN(Cc3ccccc3)C2=N)[n+](C)c2ccccc21
  -7	-3	20%	-6.0	-0.1	0.1%	0.1%
- CCC(=NCc1ccccc1)C1=C(O)C(C(=O)OC)C(C)(C)CC1=O (centres undefined)
  -3	0	-1%	-0.4	0.5	1.5%	3.2µM*
- COc1ccc(C2C(C#N)=C(N)Oc3n[nH]c(C)c32)cc1Cn1nnc2ccccc21 (centres undefined)
  ?	23	-13%	1.6	-0.6	0.5%	?
- N/C(=N\OC(=O)c1cccc(Cn2cc(C(F)(F)F)ccc2=O)c1)c1ccccc1
  16	-15	6%	1.1	0.9	-1.4%	0.1%
- O=C(Nc1cccc(S(=O)(=O)N2CCCCCC2)c1)C1=COCCO1
  -5	-21	.	.	-0.4	3.6%	-0.8%
- Cc1cccc(NC(=S)NC(=O)c2ccc(-c3ccccc3)cc2)n1
  ?	-10	18%	6.1	2.4	1.9%	.
- Cc1c(Cl)cccc1NC(=O)CNC(=O)c1ccccc1F
  -1	-2	5%	1.6	-0.6	4.7%	0.7%
- COc1ccc(NC(=O)CSc2nccn2C)cc1S(N)(=O)=O
  -14	-4	-14%	-3.5	-0.5	2.6%	.
- O=C(NC12CC3CC(CC(C3)C1)C2)c1cc(F)c(F)c(F)c1F
  -6	67	-15%	-8.9	2.6	5.2%	.
- COc1ccc(-c2cc(C(F)(F)F)nc(N)n2)cc1
  -2	-20	19%	5.6	0.0	-1.3%	.
- CCn1c(C(=O)NCCCc2ccccc2)cc2sccc21
  -4	78	-1%	4.4	5.4	7.0%	0.1%
- COc1ccc(CNC(=O)Cn2ccc(NC(=O)OCc3ccccc3)nc2=O)cc1
  -2	8	.	.	-0.7	2.0%	-1.0%
- Cc1nnc(NC(=O)C(c2ccccc2)c2ccccc2)s1
  -17	1	19%	-13	-0.1	4.7%	.
- COc1ccc(/C=C2\Oc3cc(OCC(=O)N4CCC(C(=O)O)CC4)ccc3C2=O)c(OC)c1OC
  -5	.	13%	1.0	.	-0.8%	-4.9%
- CCOC(=O)c1nn(-c2ccc(C)c(C)c2)c(=O)c(C#N)c1C
  5	-3	9%	0.1	-0.1	1.4%	0.6%
- O[C@@H]1C[C@H](c2ccc(Cl)cc2)N(Cc2cccs2)C[C@H]1n1cc(-c2ccc(F)cc2)nn1
  .	5	.	.	0.3	1.1%	2.7%
- C#CCOCCOCCOCCNc1nc(N2CCN(C(=O)CCCCCCCCCCNC(=O)Cn3cc(CCCCCN)nn3)CC2)nc(N2CCN(C(=O)CCCCCCCCCCNC(=O)Cn3cc(C[C@@H](C)O)nn3)CC2)n1
  -15	-14	.	.	0.4	3.9%	-1.1%
- COc1ccc(C(=O)N2CCCC(c3ccccc3)C2)cc1 (centres undefined)
  4	-6	12%	-1.7	1.0	0.5%	-0.4%
- CCOC(=O)c1ccc(NC(=O)CCc2c(C)nc3cc(-c4ccc(OC)cc4OC)nn3c2C)cc1
  .	23	.	.	-0.2	1.8%	-16%
- O=C(COC(=O)Cc1n[nH]c(=O)c2ccccc12)Nc1c(Cl)cccc1C(F)(F)F
  11	11	.	.	-0.3	-0.6%	-2.0%
- CN(C)c1ccc(NC(=O)Cn2c(SCc3ccccc3F)nc3cccnc32)cc1
  .	1	.	.	-0.9	2.7%	-3.0%
- CSc1ccc(CNc2ccccn2)cc1
  -6	26	1%	0.6	1.1	-4.0%	-15%
- CCc1ccc(NC(=O)C2CC=CCC2C(=O)O)cc1 (centres undefined)
  16	-3	14%	-2.3	0.1	1.7%	0.2%
- CSc1ccc(CN2CCC2(C)C(=O)Nc2ccc3c(c2)OCO3)cc1 (centres undefined)
  .	.	.	.	-0.8	1.5%	-1.1%
- COc1ccc(C(=O)CCc2ccc(OC)c(OC)c2)cc1
  .	-18	.	.	0.5	-0.3%	.
- COC(=O)c1sccc1NC(=O)CSc1ccccc1NS(=O)(=O)c1ccc(F)cc1
  23	4	1%	1.0	4.1	-2.2%	0.4%
- CSc1nnc(C)c(=O)n1COC(=O)/C=C/c1ccc2c(c1)OCO2
  -11	-9	-18%	2.8	0.4	0.4%	.

# Arranged by value in TRPML1 blocker (ascending): 4 from the list above.
structure | TRPML1 blocker
CSc1nnc(C)c(=O)n1COC(=O)/C=C/c1ccc2c(c1)OCO2 | -9
COc1cc(F)c(C2=CC(=O)CC(C)(C)C2)cc1F | -5
CCOC(=O)c1nn(-c2ccc(C)c(C)c2)c(=O)c(C#N)c1C | -3
Cc1nnc(NC(=O)C(c2ccccc2)c2ccccc2)s1 | 1

# Sorted by molecular weight (ascending): part of the list above
# Screens in order: TRPV1 PAM	TRPML1 blocker	Sfp PPTase inh	Menin-MLL FL inh	TRPML1 agonist	PINK1 expr mod	ClpP mod
- Cc1cccc(NC(=S)NC(=O)c2ccc(-c3ccccc3)cc2)n1
  ?	-10	18%	6.1	2.4	1.9%	.
- COc1ccc(NC(=O)CSc2nccn2C)cc1S(N)(=O)=O
  -14	-4	-14%	-3.5	-0.5	2.6%	.
- COc1ccc(C2C(C#N)=C(N)Oc3n[nH]c(C)c32)cc1Cn1nnc2ccccc21 (centres undefined)
  ?	23	-13%	1.6	-0.6	0.5%	?

# From PubChem
